Cruzain inh Det – inhibitors of Trypanosoma cruzi cruzain with detergent | purified cruzain, Z-FR-AMC fluorescence, 0.01% Triton | P25779 | 200,000 tested, 0.43% active | AID 1478 | Potency, µM, inactives show max response, negative = inhibition, usual class: inhibitors; active = well fitted curve in the direction sought with a large enough effect; inconclusive = small, poorly fitted or top-dose-only effect, or another doubt; inactive = no such curve, though single readings can be large; an effect the other way counts as inactive or inconclusive;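 note: plate controls were neutral wells for no effect and buffer without enzyme for full effect; nearly all actives have a fitted effect of over 40% in size; top concentration of the series not given in the record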
Target sequence (P25779 123-467 limits assumed): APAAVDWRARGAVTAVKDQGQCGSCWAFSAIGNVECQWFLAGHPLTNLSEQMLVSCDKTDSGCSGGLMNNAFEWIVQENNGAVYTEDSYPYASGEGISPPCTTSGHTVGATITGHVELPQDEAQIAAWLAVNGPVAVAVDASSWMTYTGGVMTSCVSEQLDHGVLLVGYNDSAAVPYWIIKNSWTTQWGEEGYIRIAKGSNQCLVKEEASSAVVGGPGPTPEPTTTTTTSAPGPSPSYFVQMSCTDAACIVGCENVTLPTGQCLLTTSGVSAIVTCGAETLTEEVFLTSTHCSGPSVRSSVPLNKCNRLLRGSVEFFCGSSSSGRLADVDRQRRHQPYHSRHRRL
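15 min RT preincubation of 1.5 nM cruzain with compound, then 2 uM Z-FR-AMC added; kinetic AMC fluorescence, 60 s delta. Triton X-100 0.01%, pH 5.5.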
Cruzain noTriton – inhibitors of Trypanosoma cruzi cruzain without detergent. P25779. purified cruzain, Z-FR-AMC fluorescence, no detergent. Potency, µM, without a hit: max response, negative = inhibition, hits mostly inhibitors. 200,000 tested, 2.3% active. AID 1476; active = well fitted curve in the direction sought with a large enough effect; inconclusive = small, poorly fitted or top-dose-only effect, or another doubt; inactive = no such curve, though single readings can be large; an effect the other way counts as inactive or inconclusive;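 note: plate controls were enzyme without inhibitor for no effect and buffer without enzyme for full effect; nearly all actives have a fitted effect of over 40% in size; top concentration of the series not given in the record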
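Detergent-free condition (0.00005% Triton X-100) in acetate buffer pH 5.5 with DTT. 1.5 nM enzyme and compound were pre-mixed 15 min, then 2 uM Z-FR-AMC substrate added; reaction progress from fluorescence change between first and third reads (60 s).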
LASV entry inh – Lassa virus entry inhibition; Lassa virus pseudotype entry inhibition, cell reporter; control for the full effect not named in the record; Potency, µM (series often up to 37.9 µM), inactives show at the highest dose activity change, negative = inhibition, usual class: inhibitors; 300,000 tested, 1.2% active; active means well fitted inhibition curve with a large enough effect; inconclusive means small, poorly fitted or top-dose-only effect, or effect the other way; inactive means flat fitted curve, though single readings scatter; tested in HEK293 cells; note: % is set by controls: 0 for no effect and ±100 for the full control effect; nearly all actives have a fitted effect of over 50% in size; luciferase read-out
2A StopGo – lowers the luciferase signal of an FMDV 2A StopGo reporter | human cells with a luciferase reporter of 2A StopGo recoding; control for the full effect not named in the record | Potency, µM (highest dose often 57.9 µM), inactives show top-dose signal change, negative = less light | 410,000 tested, 1.2% active | AID 1159524; active = well fitted falling curve with a large enough effect; inconclusive = small, poorly fitted or top-dose-only effect; inactive = no such curve, though single readings can be large or run the other way; tested in HEK293T cells; note: % is set by controls: 0 for no effect and ±100 for the full control effect; nearly all actives have a fitted effect of over 45% in size; luciferase light after 4 h
SARS PLP yeast – blocks SARS-CoV papain-like protease in a yeast assay; S. cerevisiae expressing SARS-CoV PLpro, growth rescue; control for the full effect not named in the record; Potency, µM (series often up to 32.9 µM), without a hit: at the top dose activity, positive = growth rescue; 330,000 tested, 0.19% active; AID 485353; note: 0% is about no effect; nearly all actives have a fitted effect of over 55% in size; growth read by luminescence after 48 h
RE007 growth inh – less growth of the S. pombe RE007 Vpr strain | S. pombe RE007 Vpr strain, BacTiter-Glo ATP luminescence, 24 h; control for the full effect not named in the record | Potency, µM (series often up to 92.2 µM), without a hit: at the highest dose activity change, negative = less growth | 360,000 tested, 0.21% active; active = well fitted falling curve with a large enough effect; inconclusive = small, poorly fitted or top-dose-only effect; inactive = no such curve, though single readings can be large or run the other way;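 note: % is set by controls: 0 for no effect and ±100 for the full control effect; nearly all actives have a fitted effect of over 50% in size; the assay follows cell death caused by Vpr and the record does not say whether a fall means rescue or toxicity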
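Fission yeast RE007 carrying one integrated HIV-1 vpr copy, seeded at OD 0.01 in PMG+AL medium with 23 nL pinned compound. Grown 24 h at 30 degrees; viability read by BacTiter-Glo luminescence after 5 min.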
NS1 function inh – blocks influenza NS1 protein function; Potency, µM (highest dose often 46.1 µM), inactives show at the top dose activity, positive = more growth; S. cerevisiae slowed by influenza A NS1, growth recovery by OD600; AID 2326; 270,000 tested, 0.4% active; note: actives are rising curves; nearly all actives have a fitted effect of over 50% in size
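In this qHTS, NS1 from influenza A is expressed in budding yeast, where it slows growth. Cells are switched from glucose to 2% galactose medium (pH 6.0, -URA), treated with compound, and growth recovery is read at OD600.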
Marburg entry inh – inhibitors of Marburg virus binding or cell entry; Marburg virus pseudotyped entry inhibition, cell reporter; control for the full effect not named in the record; about a third of the inactives were read at about 46 µM; Potency, µM (doses to about 37.8 µM), without a hit: at the highest dose activity change, negative = inhibition, actives largely listed as inhibitors; 300,000 tested, 1.8% active; active = well fitted inhibition curve with a large enough effect; inconclusive = small, poorly fitted or top-dose-only effect, or effect the other way; inactive = flat fitted curve, though single readings scatter; tested in HEK293 cells; about a fifth of its hits are not listed in these tables; note: % is set by controls: 0 for no effect and ±100 for the full control effect; luciferase read-out
An asterisk follows results filed as active; ? = inconclusive; . = no result given; & = joins results of further samples; [ ] = remark or other dose. Unless noted, calls come from the whole dose curve; as a rule, active means well fitted rising curve with a large enough effect; inconclusive means small, poorly fitted or top-dose-only effect; inactive means no such curve, though single readings can be large or run the other way. Potency is the fitted concentration of half-maximal effect.

SMILES	Cruzain inh Det	Cruzain noTriton	LASV entry inh	2A StopGo	SARS PLP yeast	RE007 growth inh	NS1 function inh	Marburg entry inh
CC1CCc2c(nc3ncnn3c2NCCN(C)C)C1 (stereo not given)	.	.	2%	17%	0%	-5%	.	3%[46.1 µM]
CC(=O)c1ccccc1Oc1ncnc(N)c1[N+](=O)[O-]	.	.	.	-7%	0%	1%	3%	.
O=C1C2C(C(=O)N1Cc1cccnc1)C1C=CC2C12CC2 (stereo not given)	5.9%	-11%	-9%	-25%	4%	6%	-11%	-1%
CCOC(=O)/C=C1\SCC(=O)N1CC(O)CN1C(=O)CS/C1=C\C(=O)OCC	0.5%	10%	6%	-24%	3%	3%	-3%	?
O=C(Nc1c(-c2ccccc2)nc2c(Br)cc(Br)cn12)c1ccco1	-3.2%	-28%	4%	-6%	0%	23%	-13%	19%
CC1CCc2c(cnc3ncnn23)C1 (stereo not given)	.	.	.	-19%	5%	13%	-6%	.
COC(=O)COc1ccc(Oc2cc(C)nc(SC)n2)nn1	-2.9%	4%	14%	-8%	0%	7%	?	0%
Oc1ccc2ccccc2c1CN1CCCCC1	.	.	7%[46.1 µM]	7%	.	-25%	.	-5%[46.1 µM]
Cc1cc(S(=O)(=O)Cc2noc(-c3c(C)noc3C)n2)c(C)cc1Cl	.	.	?	?	0%	-4%	-3%	?
CCOc1ccccc1C=NNc1ccc([N+](=O)[O-])cn1	.	.	3%	1%	.	12%	.	2%
CCn1cc(C(=O)O)c(=O)c2cnc(N3CCN(C(=S)Nc4ccccc4)CC3)nc21	.	.	?	-14%	0%	5%	?	3%
Nc1cccc2c1C(=O)N(Cc1cccc(Cl)c1)C2=O	.	.	4%	-23%	-3%	18%	.	-11%[46.1 µM]
CC1=NN(c2ccc(C)c(C)c2)C(=O)/C1=C\C=C\c1ccc([N+](=O)[O-])o1	.	.	7.1µM*	13µM*	-6%	-1%	.	3.5µM*
O=C1c2ccsc2SCCN1Cc1ccccc1Cl	1.6%	-8%	-7%	-11%	.	?	-6%	-9%&-9%[46.1 µM]
O=C(NNc1ccccc1)Nc1ccccc1F	.	.	-23%	6%	-4%	-27%	1%	8%[46.1 µM]

Another view of some results above:
O=C(Nc1c(-c2ccccc2)nc2c(Br)cc(Br)cn12)c1ccco1
  Cruzain inh Det: -3.2%	Cruzain noTriton: -28%	LASV entry inh: 4%	2A StopGo: -6%	SARS PLP yeast: 0%	RE007 growth inh: 23%	NS1 function inh: -13%	Marburg entry inh: 19%
CCn1cc(C(=O)O)c(=O)c2cnc(N3CCN(C(=S)Nc4ccccc4)CC3)nc21
  Cruzain inh Det: .	Cruzain noTriton: .	LASV entry inh: ?	2A StopGo: -14%	SARS PLP yeast: 0%	RE007 growth inh: 5%	NS1 function inh: ?	Marburg entry inh: 3%
O=C1c2ccsc2SCCN1Cc1ccccc1Cl
  Cruzain inh Det: 1.6%	Cruzain noTriton: -8%	LASV entry inh: -7%	2A StopGo: -11%	SARS PLP yeast: .	RE007 growth inh: ?	NS1 function inh: -6%	Marburg entry inh: -9%&-9%[46.1 µM]
Nc1cccc2c1C(=O)N(Cc1cccc(Cl)c1)C2=O
  Cruzain inh Det: .	Cruzain noTriton: .	LASV entry inh: 4%	2A StopGo: -23%	SARS PLP yeast: -3%	RE007 growth inh: 18%	NS1 function inh: .	Marburg entry inh: -11%[46.1 µM]

Additional entries:
SMILES	Cruzain inh Det	Cruzain noTriton	LASV entry inh	2A StopGo	SARS PLP yeast	RE007 growth inh	NS1 function inh	Marburg entry inh
O=S(=O)(Nc1cccc(-c2ccc(N3CCCCCC3)nn2)c1)c1ccc(F)cc1	-4.0%	?	?	32%&33%[activator]	6%	21%	8%	-25%[46.1 µM]
CCc1ccc(N(CC)C(=O)CCn2cnc3onc(-c4ccc(F)cc4)c3c2=O)cc1	-2.7%	?	?	-15%	.	.	.	.
CCc1cccc(CC)c1NC(=S)N1CC2CC(C1)c1cccc(=O)n1C2 (stereo not given)	-1.8%	6%	14%	-6%	-4%	2%	-9%	?
CCN(CC)CC(=O)Nc1c(Br)ccc2c1OCO2	3.6%	-1%	-7%	2%	1%	12%	8%	-25%
CCOc1ccc(/C(O)=C2/C(=O)C(=O)N(c3ncccn3)C2c2ccc(C)cc2)cc1 (stereo not given)	.	.	-15%	-6%	4%	15%	4%	-9%[14.2 µM]
O=C(CN1CCN(c2ccc(F)cc2)CC1)c1ccc2c(c1)OCO2	-3.4%	8%	-9%	28%	-1%	-30%	-27%	-1%
CC(C)OC(=O)CSc1nnc(-c2ccccn2)n1-c1ccccc1	6.7%	-2%	-2%	-12%	-4%	-5%	-9%	1%
Cc1[nH]c(C(=O)O)c(C#N)c1C(=O)c1ccccc1	.	.	18%[46.1 µM]	-8%	0%	10%	-3%	7%[46.1 µM]
O=C(CN1CCN(c2ccccn2)CC1)Nc1cccc(C(F)(F)F)c1	-5.7%	8%	-23%	?	-14%	-4%	-17%	-9%
Cc1cccc(NC(=O)Nc2cc(C)cc(C)n2)c1	.	.	.	58%[activator]	1%	11%	0%	.
COC(=O)Cc1c(C)c2ccc(OC(=O)c3ccccc3)cc2oc1=O	-20%	15%	-6%	7%	-18%	-11%	-112%	18%
COc1ccc(-c2cc(C(=O)NCCCN3CCOCC3)c3ccccc3n2)cc1OC	.	.	22%	0%	2%	3%	.	2%
Cc1cc(C)c2cc(C(=O)Nc3ccc(C)c(F)c3)[nH]c2c1	.	.	0%[46.1 µM]	-5%	-3%	-7%	-4%	30%[46.1 µM]
CCOC(=O)C1CCCN(C(=O)c2ccc(CS(=O)(=O)c3ccc(C)cc3)o2)C1 (stereo not given)	-5.9%	2%	.	-29%	-8%	-9%	6%	.
COc1ccc(C(=O)NCC(=O)Nc2cccc(S(=O)(=O)N3CCCC3)c2)cc1	.	.	-4%	11%	-3%	-12%	.	20%
Cc1cnc(NC(=O)[C@H](C)N2C(=O)C3CCCCC3C2=O)s1 (stereo not given in full)	.	.	4%	10%	-3%	4%	0%	-6%[46.1 µM]
O=C(NCc1cccs1)[C@@H]1CCCN1S(=O)(=O)c1ccccc1F	.	.	-3%[46.1 µM]	0%	.	-15%	.	6%[46.1 µM]
CN=C1S/C(=C\c2c(OC)cc(OC)cc2OC)C(=O)N1C	.	.	-13%	3%	0%	-13%	-2%	?
CC(C)(C)CC(C)(C)NCC(O)COc1c(F)cc(Br)cc1F (stereo not given)	1.8%	2%	?	?	-7%	-6%	-8%	?
Cc1cccc(NC(=O)Cn2cnc3sc(C)c(S(=O)(=O)N4CCC(C)CC4)c3c2=O)n1	0.2%	-9%	7%	12%	-8%	7%	0%	-18%&-18%
O=C(c1cccs1)N1CCN=C1SCc1ccccc1	-1.4%	-17%	8%	3%	-14%	-25%	-23%	7%
Cc1ccc(C2C=C(c3ccccc3)Nc3nc(NS(=O)(=O)c4ccccc4)nn32)cc1 (stereo not given)	-3.7%	16%	-11%[46.1 µM]	-10%	.	.	.	?
O=C(COc1ccc(F)cc1)N(CC1=CCS(=O)(=O)C1)c1ccccc1	0.5%	6%	4%	-9%	2%	-14%	5%	-1%
CN(C)S(=O)(=O)c1cccc(NC(=O)CNC2CCCCC2)c1	.	.	.	-14%	-1%	18%	2%	.
CC(=O)Nc1ccc(S(=O)(=O)N(C)CC(=O)N/N=C/c2cccs2)cc1	.	.	.	-11%	3%	5%	-1%	15%[46.1 µM]
OCCC1CN(Cc2cccc3nccnc23)CCN1C1CCCC1 (stereo not given)	.	.	27%[46.1 µM]	-16%	1%	7%	4%	-14%[46.1 µM]
COc1ccc(S(N)(=O)=O)cc1C(N)=O	.	.	.	?	0%	-1%	6%	.
CCN(c1ccccc1)S(=O)(=O)c1ccc(OC)c(NC(=O)CNC)c1	.	.	?	-15%	0%	-8%	4%	?
O=C(CN1C(=O)COc2ccccc21)N1CCC2(CC1)OCCO2	.	.	.	16%	6%	-8%	-8%	.
O=C(NCCS(=O)(=O)N1CCN(c2ccccc2F)CC1)C(c1ccccc1)c1ccccc1	-1.4%	-8%	-13%[46.1 µM]	-10%	.	.	.	.
COc1ccc(NC(=O)CCSc2ccc(F)cc2)cc1	.	.	-20%[46.1 µM]	13%	-4%	3%	.	?
Cc1cccc(C)c1OCC(O)CN (stereo not given)	5.9%	3%	-1%	-23%	0%	-13%	-4%	1%[46.1 µM]
Cc1c(NC(=O)CSc2nnnn2Cc2ccccc2)c(=O)n(-c2ccccc2)n1C	7.3%	-5%	-8%	11%	2%	7%	7%	9%
Cc1nnc(-c2ccccc2)o1	.	.	.	-14%	1%	1%	3%	.
Cc1cccc(Nc2cc(C)nc3ccccc23)c1	.	.	?	-24%	2%	-19%	-6%	?
COc1ccc(Nc2cc(C)c3cc([N+](=O)[O-])ccc3n2)cc1	.	.	.	-3%	-8%	-29%	2%	.
CC(C)(C)C(=O)Nc1cc2c3c(c1)CC(=O)N3CCC2	.	.	.	-1%	-3%	-6%	7%	.
CC(C)(C)c1ccc(C(=O)Nc2nnc(Cc3c[nH]c4ccccc34)s2)cc1	5.5%	?	?	-22%	8%	7%	2%	13%
COc1ccc(C(=O)Nn2c(SCC(=O)NC3CCCC3)nc3ccccc3c2=O)cc1	0.3%	-8%	?	18µM*	-6%	16%	18%	?
COC(=O)c1c(NC(=O)CN2C(=O)NC(CCc3ccccc3)C2=O)sc2c1CCCCC2 (stereo not given)	0.1%	-16%	-11%	0%	22%	-6%	-22%	-13%
COc1ccc(OC)c(NC(=O)C(=O)c2cn(CC(=O)N3CCCC3)c3ccccc23)c1	.	.	-21%	-28%	-1%	6%	-10%	-15%
O=C(Nc1ccc(-c2nc3cc(NC(=O)c4ccccc4F)ccc3o2)cc1)c1ccccc1F	0.7%	2%	-1%[46.1 µM]	6%	.	.	.	.
CCOc1ccc(S(=O)(=O)NCCC(=O)NCC(c2ccc(F)cc2)N2CCOCC2)cc1 (stereo not given)	.	.	-15%	-8%	-9%	-28%	.	9%
Cc1ccccc1Nc1cc(C)c2c(O)cccc2n1	-9.2%	-16%	-13%	8%	-12%	-1%	-33%	?
